Bm FixLJ act = B. multivorans fixK reporter activation. actives 0.3% (n = 29,000). AID 1918990. B. multivorans fixK-promoter GFP reporter, 18 h; stronger effect = higher value. z-score (concentration not given with the values);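 active = replicate mean overnight rise in green fluorescent reporter signal, 3 or more SD over negative controls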;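 also: score is relative to vehicle wells of the plate; 300 nL library stock went into each well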
The depositor's hits bear a star. Only part of the results is shown (hit frequency here may not be typical).

SMILES	Bm FixLJ act
Cc1ccccc1NC(=O)COc1ccc2oc3c(c2c1)CCCC3	1.3
CCOc1ccc(C(=O)Nc2c(C)nc(Nc3ccccc3)nc2Nc2ccccc2)cc1OCC	-0.32
CCNC(=O)CN1CCC(O)[C@]2(CCCN(C(=O)c3ccc(C)s3)C2)C1 (stereo partly specified)	-0.03
Cc1ccccc1CNC(=O)c1nn(-c2ccccc2F)nc1CO	-0.59
Cn1nc(-c2ccc(OCC(=O)Nc3cccc(C(F)(F)F)c3)cc2)c2ccccc2c1=O	-3.2
CCOC(=O)c1cc(-c2ccc(C)cc2)n(CC(=O)Nc2ccccc2F)c1C	-0.42
CCCCCCCCCCCCCCCCOP(=O)([O-])OCC[N+](C)(C)C	-1.2
COc1cccc(N2CC(NC(=O)COc3ccc(F)cc3F)CC2=O)c1 (stereo unspecified)	0.25
O=C(C(O)c1ccc(F)cc1)N(Cc1cccnc1)C1CC1 (stereo unspecified)	-0.51
Cc1ccc(NC(=O)CC2Oc3ccccc3NC2=O)cc1C (stereo unspecified)	1.1
CCOC(=O)COc1ccc(C)cc1C(=O)c1ccn2nc(-c3ccc(F)cc3)cc2n1	0.06
Cc1cccc(OCc2cc(=O)n3c(-c4ccccc4)csc3n2)c1C	-2.3

6 compounds out of the list, arranged by number of heavy atoms, highest first.
SMILES	Bm FixLJ act
CCOc1ccc(C(=O)Nc2c(C)nc(Nc3ccccc3)nc2Nc2ccccc2)cc1OCC	-0.32
CCOC(=O)COc1ccc(C)cc1C(=O)c1ccn2nc(-c3ccc(F)cc3)cc2n1	0.06
COc1cccc(N2CC(NC(=O)COc3ccc(F)cc3F)CC2=O)c1 (stereo unspecified)	0.25
Cc1cccc(OCc2cc(=O)n3c(-c4ccccc4)csc3n2)c1C	-2.3
Cc1ccccc1NC(=O)COc1ccc2oc3c(c2c1)CCCC3	1.3
O=C(C(O)c1ccc(F)cc1)N(Cc1cccnc1)C1CC1 (stereo unspecified)	-0.51

(cont.)
SMILES	Bm FixLJ act
CCN(C(=O)Cn1c(C(=O)OC)cc2oc3ccccc3c21)c1cccc(C)c1	0.42
C1N2CN3CN1CN(C2)C3	-1.8
COc1ccc(NC(=O)CSc2nc3ccccc3[nH]2)cc1	-1.1
O=C(NCCOc1ccc(F)cc1)N1CCC(C(O)c2cccs2)CC1 (stereo unspecified)	-0.45
CCCCN(C)CCNC(=O)c1nn(-c2ccc(OC)cc2)c(=O)c2c1c1ccccc1n2C	-0.21
Cc1cc(CC(=O)NCc2nc3cc(C(F)(F)F)ccc3n2C)on1	-1.1
CC(C)n1c(/C=C/[C@@H](O)C[C@@H](O)CC(=O)O)c(-c2ccc(F)cc2)c2ccccc21	0.54
Cc1ccsc1CCN1C(=O)N(c2ccc(F)cc2)C(=O)C1CC(=O)Nc1ccccc1 (stereo unspecified)	-2.2
CC(=O)c1c(C)oc2ccc(N(C(=O)Oc3ccccc3)S(=O)(=O)c3ccc(Br)cc3)cc12	-0.2
COc1cc(NC(=O)c2cc(-c3ccc(Cl)c(Cl)c3)on2)cc(OC)c1OC	1.7
Cc1nnc2c3ccccc3nc(Nc3ccccc3C(=O)O)n12	-1.2
Cc1ccc(C(=O)NCCn2c(C)cc3ccccc32)cc1C	0.06

The final 3 entries of the part before open the next one.
SMILES	Bm FixLJ act
COc1cc(NC(=O)c2cc(-c3ccc(Cl)c(Cl)c3)on2)cc(OC)c1OC	1.7
Cc1nnc2c3ccccc3nc(Nc3ccccc3C(=O)O)n12	-1.2
Cc1ccc(C(=O)NCCn2c(C)cc3ccccc32)cc1C	0.06
O=C(O)c1ccc(Nc2nc(-c3ccccc3)c3cc(Br)ccc3n2)cc1	-3.1
Cc1ccc(NC(=O)C2CCCN(S(=O)(=O)c3c(C)n[nH]c3C)C2)cc1C (stereo unspecified)	-1.5
O=S(=O)(N1CCCCCC1)N1CCc2nc(-c3cccc(F)c3)[nH]c2C1	-1.6
O=C(c1cc2c(s1)-c1ccccc1OC2)N1CCN(c2ccc(F)cc2)CC1	0.9
COc1cccc(C2NC(=O)c3n[nH]c(-c4cccs4)c32)c1 (stereo unspecified)	-1.3
CCc1cccc(C)c1NC(=O)CN1C(=O)c2cccc3cccc1c23	-0.98
COc1ccc(S(=O)(=O)c2cn(C)c3ccc(C)cc3c2=O)cc1	-1.8
CCC(C)N(CC)C(=O)c1cc(CN2CCC(O)CC2)on1 (stereo unspecified)	-0.27
COc1ccc2[nH]c3c(c2c1)CCN(C(=O)c1cccc(Cl)c1)C3c1ccc(F)cc1 (stereo unspecified)	0.27
CCC(=O)N1CCc2cc(Br)cc(S(=O)(=O)CCC(=O)Nc3cccc(C)c3C)c21	3.4*
CCC1(c2ccccc2)C(=O)NCNC1=O	-0.47
CC12CCC(=O)C=C1CCC1C2[C@@H](O)CC2(C)C1CC[C@]2(O)C(=O)COP(=O)(O)O (stereo partly specified)	0.73
CCOc1ccc(NC(=O)c2sc3nc4c(c(-c5ccccc5)c3c2N)C(=O)CC(C)(C)C4)cc1	-4.2
COc1ccc(OC)c(S(=O)(=O)N2Cc3ccccc3CC2C(=O)Nc2ccc(C(C)=O)cc2)c1 (stereo unspecified)	-0.13
COc1ccc(-c2oc3ncn4nc(COc5ccc(Cl)cc5)nc4c3c2-c2ccc(OC)cc2)cc1	0.31
COc1ccc(-c2noc(CCC(=O)Nc3ccc(C(F)(F)F)cc3)n2)cc1	-0.99
COCCNC(=O)c1ccc2c(c1)N(Cc1cc(C)ccc1C)C(=O)c1ccccc1S2(=O)=O	-2.3
CCc1oc(C(N)=O)cc1CN1CCCC(C(=O)c2cc(F)ccc2F)C1 (stereo unspecified)	-0.36
COc1cccc(NC(=O)/C(C#N)=C\c2cn(Cc3ccc(Cl)cc3)c3ccccc23)c1	-1.4
COc1ccc(CCNC(=O)c2cc3c(-c4ccccc4F)nn(C)c3s2)c(OC)c1	-0.91
Cc1oc(-c2cc(F)cc(F)c2)nc1CN1CCN2C(=O)CNC(=O)C2C1 (stereo unspecified)	0.41
Cc1nn(Cc2noc(C(=O)NC(C)c3ccccc3)n2)c(C)c1Br (stereo unspecified)	-1.9
COc1ccc(C(=O)Nc2cc(C(C)C)c(O)c(S(=O)(=O)c3ccc(Cl)cc3)c2C)cc1	-1.1
CCCOc1ccc(CNC(=O)c2cc3oc4ccccc4c3n2C)cc1	2.1
CCOc1ccc(NC(=O)Cn2cnc3sc(C)c(S(=O)(=O)N4CCN(c5ccccc5OC)CC4)c3c2=O)cc1	-3.5
COc1cc2c(cc1NC(=O)COc1ccc(Br)cc1)oc1ccccc12	-0.67
Cc1noc(C)c1CN1CC(C(=O)O)C(c2ccccn2)C1 (stereo unspecified)	0.19
COc1ccc(CCNC(=O)c2nn(-c3ccc(C)cc3)c(=O)c3c2c2ccccc2n3C)cc1OC	-0.45
Cc1nc2nc(SCC(=O)NCCc3ccccc3)nn2c(C)c1Cc1c(F)cccc1Cl	-1.2
CCCCOc1ccc(C(=O)N(Cc2nc(-c3ccc(Cl)cc3)no2)C(C)C)cc1	-2.1
O=c1c2sc3ccccc3c2n(Cc2ccc(Cl)cc2)c(=O)n1Cc1ccco1	-0.78
C#C[C@]1(O)CCC2C3CCC4=CC(=O)CC[C@@H]4C3CC[C@@]21C (stereo partly specified)	0.11
CC(C)n1cc(CNC(=O)COC(c2ccccc2)C(F)(F)F)cn1 (stereo unspecified)	-0.7
Cc1ccc(CN2CCCC(c3nnc(Cn4ccnc4C)n3C)C2)cc1 (stereo unspecified)	-2.5
CN(C)CCNC(=O)c1ccc(-c2nn(C)c(=O)c3ccccc23)cc1	-1.4
COc1ccccc1CNC(=O)C(NS(=O)(=O)c1cccs1)C(C)C (stereo unspecified)	-1.6
CCOCCCNC(=O)C1CCN(c2cc(C)nc3c(-c4ccc(Cl)cc4)c(C)nn23)CC1	-1.7
CN(C)C(=O)c1ccc(N2CCCC(c3nccn3Cc3cccnc3)C2)nc1 (stereo unspecified)	-0.13
Cc1ccsc1C(Cn1cc(-c2nccn2C)nn1)N(C)C (stereo unspecified)	-1.2
Cc1ccc(-c2nnc(Nc3ccc(Cl)c(Cl)c3)c3ccccc23)cc1S(=O)(=O)N(C)C	0.49
COc1ccc(-n2nc(C(=O)Nc3cc(C)ccn3)c3c4ccccc4n(C)c3c2=O)cc1Cl	-1.4
CCc1cccc(C)c1NC(=O)Nc1csc2c1CCCC2	-0.63
COc1ccc2c(C)c(CC(=O)NCCc3ccccc3)c(=O)oc2c1OC	-3.7
COc1ccc(C2=Nc3ccccc3NC(c3cccs3)=N2)cc1	-1.4
CNC[C@H](O)c1cccc(O)c1	-0.06
Cn1cc(Cl)c(CN(CCCn2ccnc2)Cc2cccnc2)n1	-0.98
COc1ccc(CCN2C(=O)c3[nH]nc(-c4ccccc4O)c3C2c2ccc(O)c(OC)c2)cc1 (stereo unspecified)	-2.2
O=C(NCCc1ccccc1)c1ccc(Nc2nc3ccccc3n3nnnc23)cc1	-0.45
CCC(=O)OCC(=O)[C@@]1(OC(=O)CC)[C@@H](C)C[C@H]2[C@@H]3CCC4=CC(=O)C=C[C@]4(C)C3(F)[C@@H](O)C[C@@]21C (stereo partly specified)	-1.2
CCOC(=O)c1c(C)c(C(=O)NCc2ccc(Cl)cc2)c(C)n1C	-0.6
CCCc1cc(=O)[nH]c(SCC(=O)N2CCN(c3ccccc3OC)CC2)n1	0.46
C[C@@H]1CC2C3CCC4=CC(=O)C=C[C@]4(C)[C@@]3(F)[C@@H](O)C[C@]2(C)[C@@]1(O)C(=O)CO (stereo partly specified)	-0.18
CCCC(NC(=O)c1nnc2nc(C)ccn12)c1cccs1 (stereo unspecified)	0.44
COCCN1CCN(C(=O)NC(C)c2ccc3[nH]ccc3c2)CC1 (stereo unspecified)	0.42
CCC1=C(c2ccc(C)cc2)S(=O)(=O)N=C1N1CCC(C(=O)NCCc2cccc(OC)c2)CC1	-2
CC(=O)Nc1cccc(C(=O)N2CCc3c(nc(N(C)C)[nH]c3=O)C2)c1	-0.9
Cc1nc2ncnn2c(C)c1CCC(=O)N1CCN(c2ccccc2)CC1	-1.1
CCOC(=O)c1sc2ncn(CC(=O)Nc3ccc(OC)c(Cl)c3)c(=O)c2c1C	-1
CS(=O)(=O)NC1CCN(CCn2cc(Cl)cn2)CC1	0.62
CCCC(=O)n1nc(-c2ccco2)nc1NCc1ccccc1Cl	-2.5

In a second layout: results already given
smiles,Bm FixLJ act
Cc1ccsc1C(Cn1cc(-c2nccn2C)nn1)N(C)C (stereo unspecified),-1.2
Cc1ccc(-c2nnc(Nc3ccc(Cl)c(Cl)c3)c3ccccc23)cc1S(=O)(=O)N(C)C,0.49
COc1ccc(-n2nc(C(=O)Nc3cc(C)ccn3)c3c4ccccc4n(C)c3c2=O)cc1Cl,-1.4
CCc1cccc(C)c1NC(=O)Nc1csc2c1CCCC2,-0.63
COc1ccc2c(C)c(CC(=O)NCCc3ccccc3)c(=O)oc2c1OC,-3.7
COc1ccc(C2=Nc3ccccc3NC(c3cccs3)=N2)cc1,-1.4

(list continues)
SMILES	Bm FixLJ act
Cc1ccc(-c2nc(CN3CCCC3c3n[nH]c(C)n3)no2)cc1 (stereo unspecified)	-1.9
COc1cccc(CNC(=O)CCc2c(C)nc3c(c2C)c(=O)n(C)c(=O)n3C)c1	-1.2
COc1ccccc1N1CCN(C(=O)Cn2ncc3ccsc3c2=O)CC1	1.4
Cc1ccc(-c2nc3ncccc3o2)cc1NC(=O)c1cccc(OCC(C)C)c1	-3.5
O=C(NCC1CCCCN1)c1cc(OCC(F)(F)F)ccc1OCC(F)(F)F (stereo unspecified)	-1.3
COc1ccc(CNc2nc(-c3ccccc3)nn2S(=O)(=O)c2ccccc2)cc1	2.7
O=C(Cn1c(=O)n(Cc2ccc3c(c2)OCO3)c(=O)c2ccc(C(=O)NC3CCCCC3)cc21)Nc1ccccc1F	0.16
COc1cccc(-n2c(=O)c3sc4ccccc4c3n(CC(=O)Nc3cccc(Cl)c3)c2=O)c1	-0.33
Fc1ccc(-c2cc(-c3ccccc3)c3c(n2)-c2cc(F)ccc2OC3)cc1	0.11
CC1=C(C(N)=O)C(c2ccc(C(C)C)cc2)n2nc(SCc3ccccc3F)nc2N1 (stereo unspecified)	-0.65
CCCCOc1ccc(Cn2c(=O)sc3ccccc32)cc1OC	-0.69
O=C(c1ccc(-c2noc(C3CC3)n2)cc1)N1CCC2(CCOCC2)CC1	0.1
O=C(CSc1oc(-c2ccco2)nc1S(=O)(=O)c1ccc(Br)cc1)c1ccccc1	-0.54
Cc1cc(C)c(OCC(=O)N(Cc2ccc(N(C)C)cc2)CC2CCCO2)c(C)c1 (stereo unspecified)	-1.3
O=C(Nc1ccc(F)c(Cl)c1)C1CCCN1S(=O)(=O)c1ccc(F)cc1 (stereo unspecified)	-2.1
CCc1cccc(C)c1NC(=O)CSc1nnc(N)s1	-0.36
CCCN1C(=O)NC(CC(=O)NCc2cn3nc(C)sc3n2)C1=O (stereo unspecified)	-1.6
CC(=O)NC[C@H]1CN(c2ccc(N3CCOCC3)c(F)c2)C(=O)O1	-1.1
O=C(c1cc(-c2ccccc2O)on1)N1CCCCC1	-1.4
Cc1ccc(CNC(=O)CSc2c3c(nc4ccc(Cl)cc24)CCCC3)cc1	-2
Cc1ccccc1-c1cccc(NC(=O)N(C)C2CCS(=O)(=O)CC2)c1	0.03
COc1ccc(C(NC(=O)c2[nH]c3ccc(C)cc3c2C)C2CC(O)C2)cn1 (stereo unspecified)	0.18
CCOC(=O)c1c(C)oc2c(Cl)cc(NS(=O)(=O)c3ccc(Cl)c(C)c3)cc12	1.3
O=C(NCc1ccco1)c1ccc2c(c1)N(Cc1ccc(F)cc1)C(=O)c1ccccc1S2=O (stereo unspecified)	-2.2
CCn1c(=O)n(-c2ccc(F)c(Cl)c2)c(=O)c2c3c(sc21)CN(C(C)=O)CC3	-1.1
Cc1ccc(C(=O)c2cn(Cc3cccc(C)c3)c3nc(C)ccc3c2=O)cc1	-0.26
CCc1nn(-c2ccccc2)c2nc(-c3ccccc3OC)c3cc(OC)c(OC)cc3c12	0.39
COc1cc(C)cc(OC)c1C(C(=O)O)N(C)Cc1cc(C)no1 (stereo unspecified)	-1.4
Cc1cc(C)c(S(=O)(=O)N2CCN(Cc3ccc4c(c3)OCO4)CC2)cc1C	0.59
Cc1cc(CC2CN(C(=O)c3ccc(C)[nH]c3=O)CC2O)n[nH]1 (stereo unspecified)	-1.9
